# Source: PubChem
# VDR inh – blocks the human vitamin D receptor; Potency, µM, for inactives: max response, negative = inhibition, usual class: inhibitors; 0.93% of 400,000 active; VDR-SRC2-3 peptide fluorescence polarization, 2 h; P11473; active = well fitted inhibition curve with a large enough effect; inconclusive = small, poorly fitted or top-dose-only effect, or another doubt; inactive = no such curve, though single readings can be large or run the other way; also: series mostly up to about 120 µM
# Target sequence (P11473 whole entry, looked up): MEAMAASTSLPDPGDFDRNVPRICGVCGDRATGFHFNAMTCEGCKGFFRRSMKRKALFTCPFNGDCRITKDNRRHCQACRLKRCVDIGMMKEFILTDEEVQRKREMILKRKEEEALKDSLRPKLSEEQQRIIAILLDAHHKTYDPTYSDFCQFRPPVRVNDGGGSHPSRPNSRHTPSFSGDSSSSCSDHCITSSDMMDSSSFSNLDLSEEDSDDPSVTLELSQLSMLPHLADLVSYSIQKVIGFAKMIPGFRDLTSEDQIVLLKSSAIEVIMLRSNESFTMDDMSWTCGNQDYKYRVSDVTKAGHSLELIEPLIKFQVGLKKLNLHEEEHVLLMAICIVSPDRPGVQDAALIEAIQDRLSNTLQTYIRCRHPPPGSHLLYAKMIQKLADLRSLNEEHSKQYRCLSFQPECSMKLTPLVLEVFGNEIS
#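 VDR–SRC2-3 interaction, FP format. Cmpds 23 nl via pintool, brief spin, 2 h ambient incubation.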
# Numbers without * were called inactive; ? = inconclusive; & = joins results of further samples; [ ] = another dose, or the depositor's remark. % is scaled to controls: 0 for no effect and ±100 for the full control effect; potency is read from the fitted curve at half-maximal effect.
canonical_smiles,VDR inh
CCCCNC(=O)C1C2C=CC(C2)C1C(=O)O (centres undefined),-9.5%
CCN(CC(=O)Nc1ccc(NC(C)=O)cc1)C(=O)C1CCCN(C(=O)c2ccc(Cl)cc2)C1 (centres undefined),-1.8%
O=C(COC(=O)c1cc[n+]([O-])cc1)Nc1ccc([N+](=O)[O-])cc1,-5.1%
N#C/C(=C\c1ccc(-c2ccccc2[N+](=O)[O-])o1)C(=O)N1CCOCC1,14.6%
CCOC(=O)c1ccc(NC(=O)CSc2nc(N3CCOCC3)nc(N3CCOCC3)n2)cc1,4.0%
COc1ccccc1CNC(=O)CN1CCC(NC(=O)c2ccccc2F)CC1,8.6%
COc1ccc(NC(=O)COC(=O)CCNS(=O)(=O)c2ccccc2)cc1OC,4.9%
COc1ccccc1NC(=O)Cn1nc2c3cc(F)ccc3n(Cc3cccc(C)c3)cc-2c1=O,13.8%
COc1ccc(-n2c(=O)c3ccccc3n(CC(=O)NC3CCCCC3)c2=O)c(OC)c1,-14.9%
COc1cc(OC)cc(C(=O)N[C@H](C(=O)NCc2cccs2)C(C)C)c1,-21.2%
COc1ccccc1CNC(=O)CCNS(=O)(=O)c1cc(Br)cnc1N,-22.6%
COCCn1c(=O)c(-c2cc(F)cc(F)c2)nc2cnc(N3CCN(C)CC3)nc21,-3.8%

# Next part.
canonical_smiles,VDR inh
CCC(C)N(C)C(=O)c1cc2ccccc2c(-c2ccccc2Cl)n1 (centres undefined),-3.6%&-10.6%
COC(=O)CC(CC(=O)OC)n1cccc1,-10.4%
COc1ccc(CCNc2oc(/C=C/c3cc(OC)c(OC)c(OC)c3)nc2C#N)cc1OC,1.0%
O=C(Nc1cc(Cl)ccc1Oc1ccccc1)c1ccc(F)cc1,15.0%
Cn1c(=O)[nH]c(=O)c2c1nc(SCC(=O)O)n2Cc1ccccc1,-18.9%
Cc1ccc(S(=O)(=O)N(C)c2ccc(OCC(=O)Nc3cccc(-n4cnnn4)c3C)cc2)cc1,-6.0%
COc1ccc(N2CCN(C(=O)CSc3nnc4ncccn34)CC2)cc1,-7.4%
COCCc1ccc(OCC(O)CNC(C)C)cc1 (centres undefined),-6.2%&-13.9%&-20.4%&-17.0%
Cc1ccc(Cc2nc3ccccc3nc2SCC(=O)NCCC(C)C)cc1,20.9%
Cc1ccc(Cn2ccc(NC(=O)c3cc(-c4ccccc4)on3)n2)cc1,-0.9%
COc1ccc(CCNC(=O)c2ccc3c(c2)S(=O)(=O)N=C2CCCCCN23)cc1,-11.6%
O=C(/C=C/c1ccccc1)NCC1(c2ccccc2)CCOCC1,-8.4%

# Some of these compounds in order of molar mass, low to high.
canonical_smiles,VDR inh
COCCc1ccc(OCC(O)CNC(C)C)cc1 (centres undefined),-6.2%&-13.9%&-20.4%&-17.0%
Cn1c(=O)[nH]c(=O)c2c1nc(SCC(=O)O)n2Cc1ccccc1,-18.9%
Cc1ccc(Cn2ccc(NC(=O)c3cc(-c4ccccc4)on3)n2)cc1,-0.9%
Cc1ccc(Cc2nc3ccccc3nc2SCC(=O)NCCC(C)C)cc1,20.9%
COc1ccc(CCNc2oc(/C=C/c3cc(OC)c(OC)c(OC)c3)nc2C#N)cc1OC,1.0%

# More structures
canonical_smiles,VDR inh
Cc1ccc2[nH]c(=O)c(CN(CCN3CCOCC3)C(=O)Nc3ccc(F)cc3)cc2c1,-9.9%
COc1ccc(-n2ncc(C(C)NS(=O)(=O)c3ccc(C(C)=O)cc3)c2C)cc1 (centres undefined),-2.3%
CN1/C(=C/C(=S)NC(=O)C2(C)CC2(Cl)Cl)C(C)(C)c2ccccc21 (centres undefined),15.0%
Cc1nn(-c2ccccc2)c(Cl)c1C(=O)Nc1ccc(N2CCOCC2)cc1,2.0%
COc1ccc(CCNC(=O)c2cnc3n(c2=O)CCS3)cc1OC,-10.9%
CCOC(=O)c1c(-c2ccccc2)csc1NC(=O)/C(C#N)=C/c1ccc(O)c(OC)c1,-11.8%
CC(C)c1cccc(C(C)C)c1NC(=O)CNCC(O)c1ccccc1 (centres undefined),4.6%
O=S(=O)(c1ccc2c(c1)oc1ccccc12)N1CCOCC1,-9.4%
COc1ccc(C2c3[nH]c4ccc(OC)cc4c3CCN2C(=O)Nc2ccccc2)cc1 (centres undefined),19.9%
O=C(Cc1cccc2ccccc12)Nc1ccc(Br)cc1C(=O)O,?
CCOc1cc(N2CCOCC2)c(OCC)cc1NC(=O)c1ccc2ncsc2c1,-3.9%
CCOC(=O)CSc1nc2cc3c(cc2cc1C#N)OCCO3,-5.1%

# Going on with the list:
canonical_smiles,VDR inh
CCNc1ncc2nc(CCc3ccccc3)c(=O)n(-c3ccccc3)c2n1,?
CN(C(=O)Nc1ccc(Cl)cc1)n1cnc2ccccc2c1=O,1.6%
CC(Oc1ccc2ccc(=O)oc2c1)C(=O)NCCCn1ccnc1 (centres undefined),12.3%
Nc1ccc2nc(-c3cccnc3)[nH]c2c1,-14.0%
COc1ccc(N(C)S(=O)(=O)c2cccc(C(=O)Nc3nc4ccccc4[nH]3)c2)cc1,3.7%
CCNC1(C(N)=O)CCN(Cc2ccccc2)CC1,3.0%
CC(=O)c1c(C)c(C)c2n1CCn1c(C)ccc1-2,-16.9%
CC1CCN(C(=O)C2CCN(S(=O)(=O)c3ccc(-n4cnnn4)cc3)CC2)CC1,-16.5%
COCCNc1nc(Cl)c(C#N)s1,3.3%
O=C1CC(c2ccccc2)=C(c2ccccc2)C1,-0.2%
COc1cc(OC)c(NC(=O)CCNC(=O)Cn2cnc3ccccc3c2=O)cc1Cl,-23.0%
CN(C)C1(CNC(=O)c2cccc(S(=O)(=O)NCc3ccccc3)c2)CCCCC1,50.0%[activator]

# New compounds follow.
canonical_smiles,VDR inh
CCn1c(SCC(=O)NCCc2ccc(F)cc2)nnc1-c1cccs1,5.4%
O=C(NCc1ccco1)c1cnn2c(C(F)(F)F)cc(-c3ccco3)nc12,-12.2%
CCC12C(=Nc3c(Cl)cccc31)C[C@@H]1CCN3C(=O)CCC[C@H]2[C@H]13 (some centres undefined),-12.2%
CSCC(=O)N1CCCC(CO)(Cc2ccccc2C)C1 (centres undefined),12.8%
CC(=O)N1CCc2cc(S(=O)(=O)N3CCN(c4ccc(C)cc4)C(C)C3)ccc21 (centres undefined),-15.9%
CC1CCCCC12NC(=O)N(CC(=O)Nc1ccc(N3CCOCC3)cc1)C2=O (centres undefined),-14.8%
Cc1ccc(NC(=O)CC(N)=S)cc1,-4.5%
CC(C)(C)c1ccc(Cn2cnc(-c3ccc([N+](=O)[O-])cc3)c2)cc1,-1.1%
COc1cc(C(CCN2CCCC2)c2c(OC)cc(OC)c3c(C)cc(=O)oc23)cc(OC)c1OC (centres undefined),-5.1%&-15.0%
CC1CCCCC1NC(=O)COC(=O)c1ccc(S(=O)(=O)N2CCOCC2)cc1 (centres undefined),-4.4%
CCn1c(C)nc([N+](=O)[O-])c1C(=O)O,-3.0%
COc1ccc(N2CCN(Cc3nc(N)nc(N4CCCc5ccccc54)n3)CC2)cc1,-12.4%

# The listing continues.
canonical_smiles,VDR inh
O=C(NC1CCCCC1)c1ccc(CNc2c(N3CCOCC3)c(=O)c2=O)cc1,?
Cc1ccc(Cl)c(OCC(=O)NCC(c2cccs2)N2CCOCC2)c1 (centres undefined),-0.6%
CCCCNc1ccc(-c2nc(-c3ccccn3)no2)cc1[N+](=O)[O-],4.4%
COc1ccc(Cc2nc(C(=O)Nc3ccc(Cl)cc3)cs2)cc1,-0.6%
CCC(=O)NC(=S)Nc1cccc(NC(=O)c2ccccc2C)c1,14.5%
Cc1ccc(N=Nc2ccc(O)c3ncccc23)cc1C,7.3%
Cc1ccc(S(=O)(=O)N(CC(=O)Nc2ccccc2C(=O)O)c2ccc(Cl)cc2)cc1,-26.5%
C=CCn1c(SCC(=O)Nc2cc(C)nn2-c2ccccc2)nnc1C1CCCCC1,-1.8%
CCc1ccc(S(=O)(=O)c2nnn3c2nc(NCc2cccc(OC)c2)c2cc(Cl)ccc23)cc1,-9.8%
C=CCN(c1ccc(F)cc1)S(=O)(=O)c1cc(C(=O)NC2CCC(O)CC2)ccc1Cl (centres undefined),19.6%
Cc1ccc(OC(=O)c2ccccc2P(=O)(O)O)cc1,16.4%
O=C(OC(C(=O)NCc1ccccc1)c1ccccc1F)c1ccco1 (centres undefined),17.0%

# The listing continues.
canonical_smiles,VDR inh
CCn1c(SCC(=O)Nc2oc(-c3ccccc3)c(-c3ccccc3)c2C#N)nnc1-c1ccco1,5.9%
Cc1nnc(N2CCC(C(=O)N3CCCCC3)CC2)c2nn(-c3ccccc3)c(C)c12,2.3%
CC(c1ccccc1)C1CC(=O)N(Cc2ccccc2)C1=O (centres undefined),5.5%
CCOC(=O)CSc1ccc(C(=O)NCCN2CCOCC2)cc1[N+](=O)[O-],2.5%
O=[N+]([O-])c1cnccc1Nc1ccc(Cl)cc1,-12.8%
Cc1ccc(NC(=S)Nc2ccc3[nH]c(=O)[nH]c3c2)cc1,?
Cc1cccc(-c2nn(-c3ccccc3)cc2CNCCO)c1,-18.3%
NNC(=O)/C=C/c1ccc(Cl)cc1Cl,4.4%
O=C(Cn1cnc2ccccc2c1=O)Nc1cccc(-c2nnc3n2CCCCC3)c1,3.6%
CCOC(=O)C1=C(COC(=O)c2cc(Br)c(Br)s2)NC(=O)NC1C (centres undefined),-15.4%
CCC(=O)N1CCc2cc(Br)cc(S(=O)(=O)N3CCCC(C(=O)NCc4cccc(OC)c4)C3)c21 (centres undefined),17.8%
COc1ccc(C(=O)CCC(=O)Nc2cccnc2)cc1,-14.1%

# (further entries)
canonical_smiles,VDR inh
CCCCC(=O)Nc1ccc(C(=O)OCc2cc(=O)n3ccsc3n2)cc1,-1.8%
Cn1c(SCC(=O)NCCc2ccccc2)nc2c([nH]c3ccccc32)c1=O,-8.5%
CC(=O)N(c1cccc(Br)c1)c1nc(C)cc(C)c1C#N,-5.2%
CCOC(=O)N1CCN(S(=O)(=O)N2CCCC(C(=O)NC(C)c3ccccc3)C2)CC1 (centres undefined),6.1%
CN(c1ccccc1)S(=O)(=O)c1cccc(NC(=O)Nc2ccc(Cl)cc2C#N)c1,-8.9%
CN1CCN(c2ccc([N+](=O)[O-])cc2C(=O)c2ccc(Cl)cc2)CC1,-16.6%
COc1ccc(C2(O)C(=O)Nc3ccccc32)cc1 (centres undefined),-19.2%
COc1cc(NS(=O)(=O)c2ccc3c(c2)n(C)c(=O)n3C)cc(OC)c1,7.9%
CCN(CC)S(=O)(=O)c1ccc(OCC(=O)NC(=O)Cc2ccccc2)c([N+](=O)[O-])c1,-4.7%
CN(C)S(=O)(=O)c1cc(NC(=O)CSc2nn(-c3ccc(Cl)cc3)c(=S)s2)ccc1Cl,-6.0%
NC(=O)CSc1nnc(-c2ccncc2)n1-c1ccc(Cl)cc1,-13.4%
CC(NC(=O)CCNC(=O)c1ccco1)c1ccc(F)cc1 (centres undefined),13.8%

# (cont.)
canonical_smiles,VDR inh
O=C(CN(C(=O)CCC(=O)Nc1nccs1)c1ccccc1F)NCCc1ccccc1,-8.3%
CC(C)c1ccc(NC(=O)Nc2cc3sccc3n2C)cc1,-13.9%
O=C(NCc1ccccc1)c1ccc(S(=O)(=O)C(F)F)cc1,-6.0%
Cc1ccc2c(c1)c1c(n2CC(O)CN2CCCCCC2)CCCC1 (centres undefined),-11.5%
Cc1ccc(-c2nc3nc(C)cc(N4CCN(c5cccc(C)c5C)CC4)n3n2)cc1,-10.0%
CSc1ccc(S(=O)(=O)NCC(=O)OCC(=O)N2CCCCC2C)cc1[N+](=O)[O-] (centres undefined),0.6%
CCOC(=O)Cn1c(-c2cccnc2Cl)nc2ccccc21,14.0%
Cc1cc(NC(=O)CSc2nc3[nH]c(=O)cc(O)c3s2)ccc1Br,-8.9%
O=[N+]([O-])c1cccc(/C=N/N2CCN(Cc3ccc(Cl)cc3)CC2)c1,10.7%
COc1ccc(CNC(=O)COc2ccc(S(=O)(=O)N3CCCCC3)cc2)cc1,-16.9%
O=C(Nc1cccc(Cl)c1)OCCOC(=O)Nc1cccc(Cl)c1,2.3%
COc1ccc(CCNC(=O)CN2C(=O)c3ccccc3S2(=O)=O)cc1OC,0.1%

# (further entries)
canonical_smiles,VDR inh
Cc1ccc(CN2CCN(CC(=O)N3CCC(C(N)=O)CC3)C2=O)cc1,12.4%
S=c1[nH]nc(-c2ccccc2Cl)n1/N=C/C=C/c1ccco1,-4.1%
CCn1c(C(=O)N2CCC(C(=O)NCCCOC)CC2)cc2sccc21,-0.2%
CCCCn1c(-c2cccs2)nc2nc3ccccc3nc21,-0.6%
CCOC(=O)c1sc(NC(=O)c2ccccc2C(=O)O)c(C(=O)OCC)c1C,-3.9%
Cc1c(/C=N/NC(N)=O)c2ccccn2c1C(=O)c1ccncc1,-11.7%
COc1ccc(OC)c(NC(=O)C2=C(C)C(=O)OC23CCCCCC3)c1,13.0%
COc1ccc(C(C)(C)C)cc1NC(=O)COC(=O)CSCc1c(C)noc1C,-0.4%
O=c1c2ccccc2c(=O)n2n1Cc1ccccc1C2,1.3%
CC(C)(C)C1CCC(=NNC(=O)c2ccccc2-n2cccc2)CC1 (centres undefined),-19.5%
COC(=O)C1=C(C(=O)OC)[C@@H]2Nc3ccccc3[C@@]23C[C@@H](C(=O)OC)N(C(C)=O)C3=N1,-4.2%
COc1ccc([N+](=O)[O-])cc1/C=N/NC(=O)CNC(=O)C(c1ccccc1)c1ccccc1,-1.9%

# Next section:
canonical_smiles,VDR inh
CC1(C)CC2CC(C)(CN2S(=O)(=O)c2cccc(C(=O)OCC(=O)NC(N)=O)c2)C1 (centres undefined),-15.7%
Nc1nc(-c2ccc(Br)cc2)cs1,-0.2%
CCCOc1ccc(N/C=C/C(=O)c2ccc(OC)c(OC)c2)cc1,?
O=C(N/N=C/c1ccco1)c1ccccc1OCc1ccccc1Cl,-12.4%
O=C(N/N=C/c1ccc(Cl)c([N+](=O)[O-])c1)c1cc(-c2ccc3c4c(cccc24)CC3)n[nH]1,1.4%

# An excerpt, so the mix of outcomes need not match the whole.
